Compound activity: PubChem, National Center for Advancing Translational Sciences (NCATS)
CtBP-E1A blk – CtBP/E1A binding inhibition. AlphaScreen GST-E1A/His-CtBP binding, 1536-well; active compounds read low; control for the full effect not named in the record. activity change, % (no concentration beside the values). hit rate 0.49% among 340,000; in the data active means activity change below about -65%; inconclusive means about -30% to -65%; inactive means above about -30%; further: on the % scale 0 is the no-effect control and ±100 the full control effect
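Protein mix (5X: 125 nM each GST-E1A, His-CtBP) was incubated with pinned compound 2 h at 37 deg C in dark, in 50 mM Tris pH 8.0 buffer with 300 mM NaCl. Glutathione donor and nickel acceptor beads followed; AlphaScreen signal read after 1 h.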
Six1-Eya2 blk – inhibitors of human Six1/Eya2 interaction. Q15475+O00167. AlphaScreen GST-Six1/His-Eya2 binding, biochemical; active compounds read low; control for the full effect not named in the record. activity change, % (test concentration not listed). hit rate 0.56% among 360,000. AID 651725; in the data active = activity change below about -65%; inconclusive = about -30% to -65%; inactive = above about -30%; further: on the % scale 0 is the no-effect control and ±100 the full control effect
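GST-Six1 + His-Eya2 (5X stock: 250/500 nM); Tris pH 8.0, 300 mM NaCl, 0.05% BSA, 0.02% Tween 20; GSH donor/Ni acceptor beads; 1 h 37 °C dark; AlphaScreen readout.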
D2 potentiator – positive allosteric modulators of human D2 dopamine receptor. DiscoveRx D2 beta-arrestin cells, luminescence, 90 min; 100% = 57 uM dopamine signal. potentiation, % (test concentration not listed). hit rate 0.23% among 360,000. AID 624464; active = potentiation of 50% or more; inconclusive = 30% to 50%; inactive = 30% or less;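 further: compound concentration not given in the record; tested on top of an EC20 dose of dopamine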
Target sequence (P14416 whole entry, looked up): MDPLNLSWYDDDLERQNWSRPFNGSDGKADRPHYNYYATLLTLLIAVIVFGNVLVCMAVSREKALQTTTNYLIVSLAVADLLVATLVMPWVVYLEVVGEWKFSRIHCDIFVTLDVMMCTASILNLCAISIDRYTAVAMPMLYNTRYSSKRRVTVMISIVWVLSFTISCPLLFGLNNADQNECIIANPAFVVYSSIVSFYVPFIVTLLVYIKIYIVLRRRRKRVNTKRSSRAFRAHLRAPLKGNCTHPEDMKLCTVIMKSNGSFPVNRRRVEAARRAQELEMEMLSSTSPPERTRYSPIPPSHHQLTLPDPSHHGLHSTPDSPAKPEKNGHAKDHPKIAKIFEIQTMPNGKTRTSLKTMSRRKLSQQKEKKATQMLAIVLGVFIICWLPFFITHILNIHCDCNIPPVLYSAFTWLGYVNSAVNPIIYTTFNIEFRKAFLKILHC
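PathHunter beta-arrestin assay in DiscoveRx D2 cells. Compounds were added with an EC20 of dopamine (50 nM final) for 90 min at 37 deg C. Luminescence was read 1 h after detection reagent, with 57 uM dopamine as the EC100 control.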
PINK1 modulator – PINK1 expression modulation | PINK1 immunofluorescence, high-content cytometry, 24 h | Potency, µM (titrated, usually from 76.6 µM), for inactives: at the highest dose activation (PINK1 increase), usual class: activators | hit rate 0.2% among 410,000 | AID 624263; active = well fitted activation curve with a large enough effect; inconclusive = small, poorly fitted or top-dose-only effect; inactive = flat fitted curve, though single readings scatter; cell line not stated here;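 further: potency means the concentration at half of the fitted maximal effect; % of control where 0% means no effect; nearly all actives have a fitted effect of over 65% in size; a mitochondrial uncoupler was the plate control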
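A stable cell line was treated with compounds at 5 concentrations for 24 hours, with CCCP as control. PINK1 levels and mitochondrial localization were measured by immunofluorescence with mitochondrial, cell and nuclear markers after fixation, read by laser-scanning cytometry.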
D2 agonist – activates the human D2 dopamine receptor; DiscoveRx PathHunter D2 beta-arrestin, luminescence, 90 min; 100% = 57 uM dopamine signal; activation, % (concentration not given with the values); hit rate 0.084% among 360,000; in the data active = activation above about 40%; inconclusive = about 15% to 40%; inactive = below about 15%; further: compound concentration not given in the record; the text of the record calls up to 30% inactive
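Agonist mode: compounds alone added to overnight-plated D2 PathHunter cells for 90 min at 37 C, with 57 uM final dopamine (EC100) defining full response. Beta-arrestin recruitment detected by chemiluminescent reagent, read after 1 h at ambient temperature.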
TRPML1 ag – activates the human TRPML1 channel. TRPML1-expressing cells, Ca2+ dye fluorescence, FDSS; host cell line not named in the record; reference of the full effect not given here. activation, % (test concentration not listed). hit rate 0.12% among 410,000; in the data active = activation above about 50%; inconclusive = about 30% to 50%; inactive = below about 30%; further: 0% is about no effect; the text of the record puts the active cut at 80%
Target sequence (Q9GZU1 whole entry, looked up): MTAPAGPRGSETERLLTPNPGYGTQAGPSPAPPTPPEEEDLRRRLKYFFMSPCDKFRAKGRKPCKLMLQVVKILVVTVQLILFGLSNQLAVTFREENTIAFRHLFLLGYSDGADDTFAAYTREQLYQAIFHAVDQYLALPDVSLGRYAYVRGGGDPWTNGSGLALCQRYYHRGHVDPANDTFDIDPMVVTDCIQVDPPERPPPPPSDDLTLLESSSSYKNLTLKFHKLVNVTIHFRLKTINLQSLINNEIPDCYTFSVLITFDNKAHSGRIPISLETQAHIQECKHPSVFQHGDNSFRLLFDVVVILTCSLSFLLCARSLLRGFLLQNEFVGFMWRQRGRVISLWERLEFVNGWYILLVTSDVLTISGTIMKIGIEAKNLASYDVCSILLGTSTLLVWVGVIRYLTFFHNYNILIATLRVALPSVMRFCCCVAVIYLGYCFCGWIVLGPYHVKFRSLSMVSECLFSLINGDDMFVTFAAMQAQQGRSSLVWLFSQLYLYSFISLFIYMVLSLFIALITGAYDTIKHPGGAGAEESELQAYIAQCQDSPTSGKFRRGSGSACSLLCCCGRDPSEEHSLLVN
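Agonist activity was taken from a 110 s kinetic Ca2+ dye read on the FDSS after pinning compounds onto TRPML1-DL cells. The cells were seeded at 1,500/well with Tet inducer, incubated about 16 h, then dye-loaded at room temperature.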
* hit, by the source's call; ? = inconclusive; · = no result given; & = joins results of further samples; [ ] = another dose, or the depositor's remark.

The opening 3 entries, ahead of the listing:
SMILES	CtBP-E1A blk	Six1-Eya2 blk	D2 potentiator	PINK1 modulator	D2 agonist	TRPML1 ag
CCn1c(SCC(=O)NCC2CCCO2)nnc1-c1ccc(S(=O)(=O)N2CCN(C)CC2)cc1 (configuration not stated)	-7	9	3	0.1%	-5.6	-0.6
COc1ccccc1S(=O)(=O)N(C)C[C@@H]1OCc2cn(nn2)CCCC(=O)N([C@H](C)CO)C[C@H]1C	-15	8	-12	1.5%	-8.5	0.6
C=CCNC(=O)COc1ccc(S(=O)(=O)N2CCCC2)cc1	-9	2	-4	0.2%	-1.6	-0.2

This part in full, repeating the preview:
SMILES	CtBP-E1A blk	Six1-Eya2 blk	D2 potentiator	PINK1 modulator	D2 agonist	TRPML1 ag
CCn1c(SCC(=O)NCC2CCCO2)nnc1-c1ccc(S(=O)(=O)N2CCN(C)CC2)cc1 (configuration not stated)	-7	9	3	0.1%	-5.6	-0.6
COc1ccccc1S(=O)(=O)N(C)C[C@@H]1OCc2cn(nn2)CCCC(=O)N([C@H](C)CO)C[C@H]1C	-15	8	-12	1.5%	-8.5	0.6
C=CCNC(=O)COc1ccc(S(=O)(=O)N2CCCC2)cc1	-9	2	-4	0.2%	-1.6	-0.2
CC1(C)Cc2c(c(N3CCOCC3)nc3sc4c(NCC5CCCO5)nnnc4c23)CS1 (configuration not stated)	-1	-10	-2	3.8%	-2.0	-0.7
Cc1ccc(NC(=S)NCCc2ccccc2)c(C)c1	-9	0	-21	-0.4%	-4.9	0.6
COC(=O)[C@H](C)NC(=O)Nc1ccccc1C(F)(F)F	0	5	-4	2.5%[38.3 µM]	-0.6	0.1
COc1ccccc1NC(=O)c1ccc(S(=O)(=O)N(C)c2ccccc2)cc1	-11	21	-5	-0.7%	0.3	0.4
COc1cccc(C2/C(=C(\O)c3ccc4c(c3)OCCO4)C(=O)C(=O)N2c2nnc(C)s2)c1 (configuration not stated)	·	-1	-7	1.4%	-0.4	1.6
Cc1cc(NC(=O)c2cc(-c3ccco3)on2)no1	1	-1	0	9.8%[38.3 µM]	-1.2	0.9
C=CCOc1c2ccc(C(=O)NCc3ccccc3OC)cc2nn1C	3	4	-2	-0.1%	1.1	0.4
O=C(N/C(=C\c1ccco1)C(=O)N1CCCCC1)c1ccc([N+](=O)[O-])cc1	3	0	-20	0.2%	-4.6	-0.2
Cn1c(Cc2nc(-c3cnccn3)no2)nnc1SCC(=O)Nc1ccccc1	-15	-10	-2	-0.4%	0.1	0.1
COC(=O)C1CCN(C(=O)Cn2nnc(-c3ccccc3)n2)CC1	-21	0	-5	2.9%	0.5	0.1
CCCCNC(=O)COC(=O)CNC(=O)c1cc(Cl)cc([N+](=O)[O-])c1	-2	-2	11	-0.2%	8.8	-0.1
COc1ccc2cc(S(=O)(=O)Nc3ccccn3)ccc2c1	3	6	2	-0.3%	-0.6	-0.2
COc1ccc(-c2c([C@H]3[C@H]4C=CC[C@@H](C)[C@@H]4C(=O)N3Cc3ccccc3)ccc3ccccc23)cc1	-15	-18	-6	26%	0.5	-0.6
CC(C)(C)[C@H]1CCC(=O)N([C@H](CC#N)Cc2ccccc2)CC1	7	-1	-4	1.9%	-2.2	-0.3&0.9
CCC(NS(=O)(=O)c1ccc(C)cc1)C(=O)Nc1ccc(NC(C)=O)cc1 (configuration not stated)	4	5	-8	-2.2%	-0.5	-0.3
CC(C)Cc1ccc(C(C)NC(=O)c2ccc(=O)[nH]c2)cc1 (configuration not stated)	2	0	-1	3.3%	-8.5	9.6
O=C(NCCc1c[nH]c2ccccc12)C(=O)NCC(c1cccnc1)N1CCN(c2ccccc2)CC1 (configuration not stated)	-13	-5	-19	5.2%	-3.9	0.3
COC(=O)[C@]1(C)N[C@H](CN(C)C(=O)Nc2ccc(F)cc2)[C@@H]2C(=O)N(C)C(=O)[C@@H]21	10	15	·	-0.8%	-1.1	0.0
COc1cc(/C=C/C(=O)OCC(=O)NC(=O)NC(C)(C)C)cc(OC)c1OC	4	3	-7	-0.1%	0.3	0.1
O=C(CN1CCN(S(=O)(=O)c2ccc(F)c(Cl)c2)CC1)N1CCc2ccccc21	-4	-1	3	-1.4%	0.1	-0.7
O=c1[nH]c2ccccc2nc1/C=C/c1ccc(F)cc1	?	-10	10	0.5%	-3.1	12
CCOC(=O)CSc1nnc(CNc2ccccc2Cl)n1-c1ccccc1	7	1	-6	-0.9%	-2.1	0.0
Cn1c(N)c(C(=O)COC(=O)COc2cc(Cl)c(Cl)cc2Cl)c(=O)n(C)c1=O	8	6	-1	-1.8%	-0.8	-0.4
Cc1cccc2cc(C3CC(c4ccco4)=NN3C(=O)CCC(=O)O)c(Cl)nc12 (configuration not stated)	6	14	-5	-0.6%	-2.6	-0.3
O=C(C[C@@H]1C/C=C\C[C@H](Cc2ccc(F)cc2)C(=O)OC[C@@H]2CCCN2C1=O)N[C@H](CO)Cc1ccccc1	1	-2	-7	0.8%	-0.9	-0.1
CC(c1ccco1)N(C(=O)c1ccccc1NS(=O)(=O)c1ccc(Cl)c([N+](=O)[O-])c1)c1ccccn1 (configuration not stated)	21	-10	-16	-4.6%	4.2	1.0
C=CCSc1nnc(N2C(=O)C(O)=C(C(=O)c3ccco3)C2c2ccc(F)cc2)s1 (configuration not stated)	6	-16	-9	-0.7%	2.3	26
Cc1csc(NC(=O)CSc2nnc(-c3ccc(S(=O)(=O)N4CCCC4)cc3)o2)n1	-10	-4	-9	8.0%	-0.3	0.5
COc1ccc(NC(=O)CSc2nnc(-c3cccs3)n2-c2ccccc2)cc1	1	-1	?	3.4%	5.4	-1.0
Cc1cc(=O)oc2cc(OCC(=O)NCCN3CCOCC3)ccc12	8	4	-4	3.1%	0.9	0.0
O=C(C1=C(O)C(=O)N(CCN2CCOCC2)C1c1ccc(F)cc1)c1cccs1 (configuration not stated)	-1	-2	0	2.9%	0.9	0.0
COc1ccc(-c2cc3nc(-c4ccccc4)cc(N4CCN(C(=O)c5ccccc5)CC4)n3n2)cc1	12	26	0	0.8%	2.2	0.2
CCOC(=O)c1c(NC(=O)CN2C(=O)c3ccccc3C2=O)sc(Cc2ccc3c(c2)OCO3)c1C	1	0	-1	0.8%	-5.1	-0.7
CCCCc1c(-c2ccc(Cl)cc2)ncn1CCc1ccccc1OC	5	-7	·	-1.3%	·	2.5
c1ccc2oc(-c3ccn[nH]3)cc2c1	-8	2	-5	-0.7%	-0.9	1.5
O=C1OCCN1C(=O)[C@H]1[C@H](c2ccccc2)C(c2ccccc2)=NN1c1ccc(Br)cc1	32	32	·	1.7%	0.2	-0.7
O=C(NNC(=S)Nc1cccc(Cl)c1)c1ccccc1OC(F)F	-7	-6	-38	?	-9.4	-0.7
N#C/C(=C\c1ccc(-c2ccc(C(=O)O)cc2)o1)C(=O)Nc1ccc(F)cc1	·	-10	-14	-0.6%	-3.8	3.4
CC(=O)N1N=C2/C(=C/c3ccccc3)CCCC2C1c1ccccc1 (configuration not stated)	-3	0	-6	-1.1%	1.5	1.4
Cc1ccc(S(=O)(=O)NC(=O)C2(C)CCN2C(=O)c2c(C)noc2C)cc1 (configuration not stated)	12	4	-2	-0.2%	-2.7	-0.5
Cc1ccc(OCc2ccc(C(=O)N3CCCC3)o2)c([N+](=O)[O-])c1	8	-9	0	0.3%	1.8	1.4
CC(=O)c1ccc(OCC(=O)Nc2nnc(C3CC3)s2)cc1	2	4	-12	2.0%	1.9	-0.3
C=CCOc1cccn2c(N(C)C(=O)c3ccccc3F)c(CC)nc12	9	1	-2	0.5%	2.0	-1.0
CC(C)OC(=O)CSc1nnc2n1C(C)(C)Cc1ccccc1-2	-1	8	-13	-3.2%	2.6	-0.5
Cc1cc(C)cc(-c2nnc(SCC(=O)NC3CC3)o2)c1	4	-5	-3	-1.8%	-7.1	-0.1
CCN(CC)S(=O)(=O)c1ccc2c3c(cccc13)C(=O)N2	0	0	-5	2.5%	1.4	-0.5
COCc1cccc(-c2csc(C(N)c3ccc(F)c(F)c3)n2)c1 (configuration not stated)	-16	1	-3	1.2%	-1.7	0.0
Cc1ccc(C(=O)NNC(=O)Cc2cccs2)cc1	-2	3	21	1.5%	-2.2	-0.2
COc1ccccc1OCCCCN1CCCCC1	·	5	-6	0.1%	1.9	0.6
Cc1ccc(N=C2NC(=O)/C(=C\c3ccc(C)s3)S2)cc1	3	1	-3	6.4%	2.4	-0.8
CCCn1nc(NC(=O)C2CCCO2)c2cc3cc(C)ccc3nc21 (configuration not stated)	-9	-1	-3	-0.1%	-0.5	-0.5
O=C(C1CCCN(c2ncnc3c2nc2n3CCCCC2)C1)N1CCN(c2ccccc2F)CC1 (configuration not stated)	-8	6	-13	-0.4%	11	0.0
COc1cc(C(=O)NC(=S)Nc2ccc3c(c2)C(=O)N(C)C3=O)cc(OC)c1OC	0	0	-16	12%	-2.4	-0.4
CSc1nc(C)c(C(=O)C[n+]2ccc(C)cc2)cc1C#N	·	-6	18	1.5%	5.4	3.3
Cc1ccc(-c2nnc3c4ccccc4c(C)nn23)cc1S(=O)(=O)N1CCN(C)CC1	-21	-18	-13	8.3%[38.3 µM]	-5.7	-0.6
O=C(NNS(=O)(=O)c1ccc([N+](=O)[O-])cc1)C(=O)Nc1cccc(C(=O)O)c1	2	-3	-22	-0.9%	0.0	-0.1
O=C(c1ccccc1)N1CCCOC1c1ccccc1 (configuration not stated)	24	9	4	0.2%	0.2	1.2

Following part
SMILES	CtBP-E1A blk	Six1-Eya2 blk	D2 potentiator	PINK1 modulator	D2 agonist	TRPML1 ag
Nc1cc(=O)nc2cn[nH]n12	-5	1	-3	-0.9%	-6.3	0.5
O=C(CSc1cccs1)Nc1ccc2ccccc2c1	12	3	10	-1.6%	-2.6	1.6
O=C(c1cccc(F)c1F)N1CCCC1	0	8	-4	-0.6%	-3.5	-0.8
CCOC(=O)COn1c(=O)c(-c2ccc(OCC)cc2)[n+]([O-])c2ccccc21	·	7	-8	2.4%	-3.3	2.1

Quoted from the results shown, 3 compounds:
SMILES	CtBP-E1A blk	Six1-Eya2 blk	D2 potentiator	PINK1 modulator	D2 agonist	TRPML1 ag
O=C(NNS(=O)(=O)c1ccc([N+](=O)[O-])cc1)C(=O)Nc1cccc(C(=O)O)c1	2	-3	-22	-0.9%	0.0	-0.1
O=C(c1ccccc1)N1CCCOC1c1ccccc1 (configuration not stated)	24	9	4	0.2%	0.2	1.2
Nc1cc(=O)nc2cn[nH]n12	-5	1	-3	-0.9%	-6.3	0.5

A few values from the list.
For TRPML1 ag, Nc1cc(=O)nc2cn[nH]n12 has the entry 0.5
For D2 agonist, O=C(c1cccc(F)c1F)N1CCCC1 has the entry -3.5
For PINK1 modulator, O=C(CSc1cccs1)Nc1ccc2ccccc2c1 has the entry -1.6%
For D2 potentiator, CCOC(=O)COn1c(=O)c(-c2ccc(OCC)cc2)[n+]([O-])c2ccccc21 has the entry -8
